From PubChem
motility: Vibrio cholerae motility inhibitors, OD read-out (AID 588778); Vibrio cholerae motility, OD read-out; higher % means a stronger effect; test concentration not given here; primary cut-off and reference of the scale not given here; strong numbers were not always called active; inhibition, %; hits with a dose series show IC50 in µg/mL; 10,000 tested, under 10 active; in the data active = confirmed in a dose series
motility viability: recorded beside motility, whose call it bears; inhibition, %; measured here: bacterial viability at 10 ug/mL;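 higher means fewer living bacteria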
* hit, by the source's call. The list is partial. The share of hits here may be higher or lower than overall.

1	CC1CN(C(=S)NC(=O)C(C)(C)C)CC(C)O1 (centres undefined)
2	C=CCn1c(SCC(=O)N2CCOCC2)nc(O)c(CC)c1=O
3	O=C(Nc1ccccc1F)c1ccc(CSc2ncccn2)cc1
4	N#C/C(=C/c1ccc(OCC(=O)N2CCOCC2)cc1)c1ccc(F)cc1
5	CNc1nc(NC(C)(C)C)nc(OCC(F)(F)F)n1
6	O=C(CSc1nc2ccccc2c(=O)[nH]1)Nc1nc(-c2ccc(Br)cc2)cs1
7	Cc1nnc(SCc2ccon2)n1-c1ccccc1
8	COc1ccccc1OCCCn1c(=O)oc2ccccc21
screen / no.,1,2,3,4,5,6,7,8
motility,6.1%,-27.2%,-2.4%,8.2%,1.3%,8.9%,-21.3%,8.5%
motility viability,-2.7,-23.0,9.1,0.0,-3.8,1.8,-6.8,-0.5

Some values from the results shown:
`O=C(Nc1ccccc1F)c1ccc(CSc2ncccn2)cc1` in motility viability is listed with 9.1
`CNc1nc(NC(C)(C)C)nc(OCC(F)(F)F)n1` in motility viability is listed with -3.8
`COc1ccccc1OCCCn1c(=O)oc2ccccc21` in motility is listed with 8.5%

(further entries)
9	O=C(Nc1ccc2c(C(F)(F)F)cc(=O)oc2c1)C1CCC1
10	NC(=O)Cc1ccc(Br)cc1
11	COC(=O)c1ccc(CN(c2ccccn2)S(=O)(=O)c2ccccc2)cc1
12	COC(=O)c1sccc1NC(=O)c1cc(-c2ccc(OC)c(OC)c2)nc2ccccc12
13	O=C(NCc1ccc2c(c1)OCO2)C1CC(c2c(F)cccc2Cl)=NO1 (centres undefined)
14	O=C(c1ccc(NC(=O)c2cc(F)c(F)cc2Cl)cc1)c1cccs1
15	CN1C(=O)/C(=C2\SC(=S)N(C3CCS(=O)(=O)C3)C2=O)c2ccccc21 (centres undefined)
16	Cc1cc(CN2CCCCC2)oc1C(=O)O
screen / no.,9,10,11,12,13,14,15,16
motility,-10.5%,-6.4%,-0.8%,11.3%,-5.3%,-14.2%,-1.9%,14.0%
motility viability,-7.9,-6.8,-1.6,-1.9,-1.3,-6.6,-3.2,7.9

17	Nc1ccc(C(=O)c2ccccc2C(=O)O)cc1Cl
18	COC(=O)Nc1nnc(CC2CCCC2)s1
19	Cc1ccc(S(=O)(=O)N(C)c2ccccc2N(C)S(=O)(=O)c2ccc(C)cc2)cc1
20	CC1(C(=O)N2CCN(S(C)(=O)=O)CC2)CC1(Cl)Cl (centres undefined)
21	CSc1ccccc1NC(=O)C1CC(c2ccccc2Cl)=NO1 (centres undefined)
22	COc1cc2c(O)c3c(c(-c4ccc5c(c4)OCO5)c2cc1OC)C(=O)OC3
23	NS(=O)(=O)c1ccc(NC(=O)CN2CCN(c3ccccc3F)CC2)cc1
24	Cc1ccc(C(=O)NCCNC(=O)c2ccc(C)o2)o1
screen / no.,17,18,19,20,21,22,23,24
motility,17.6%,6.9%,-25.0%,-6.0%,-22.9%,-2.0%,-3.8%,2.2%
motility viability,3.9,0.0,-5.4,-1.6,-5.9,-4.5,-4.0,-5.6

25	COC(=O)C(NS(=O)(=O)c1ccc(N2CCCC2=O)cc1)c1ccccc1 (centres undefined)
26	O=C(NCc1ccco1)c1ccc2c(c1)C(=O)N(CC1CCCO1)C2=O (centres undefined)
27	Cc1cccc(-c2noc(CCCC(=O)Nc3ccccc3C(F)(F)F)n2)c1
28	CCc1nccn1S(=O)(=O)c1ccccc1[N+](=O)[O-]
29	COc1cc(SC)ccc1C(=O)Nc1cccc(C(F)(F)F)c1
30	O=C(c1ccccc1)n1ccc2ccccc21
31	COc1cc(-c2ncc3ccccn23)cc(OC)c1OC
32	COC(=O)c1ccccc1NC(=O)Cn1c(SC)c(F)cnc1=O
screen / no.,25,26,27,28,29,30,31,32
motility,20.4%,-2.0%,-3.2%,3.6%,0.3%,30.3%,-10.9%,-10.1%
motility viability,-3.4,4.5,8.2,0.7,-4.9,8.9,1.8,-1.1

33	Cc1c(Br)cc(C(=O)OC2CCN(C)CC2)c(C)c1C
34	C=C(C)CC1Nc2ccccc2NC1CC(=C)C (centres undefined)
35	Cc1c(Nc2nc3nonc3nc2Nc2ccc(Cl)cc2)c(=O)n(-c2ccccc2)n1C
36	COc1ccc(C(=O)Nc2ncccc2O)cc1
37	O=C(Cc1ccccc1)NNc1c2ccccc2nc2ccccc12
38	Cc1ccc(S(=O)(=O)Nc2nc(-c3c(F)c(F)c(F)c(F)c3F)cs2)cc1
39	Cc1cc(C)nc(SCCS(=O)(=O)c2ccc(C(C)(C)C)cc2)n1
40	O=C1CCC(=O)N1c1cc(Cl)ccc1Cl
screen / no.,33,34,35,36,37,38,39,40
motility,25.3%,-3.7%,7.5%,10.3%,27.9%,5.8%,4.8%,-10.9%
motility viability,10.2,1.1,1.1,2.5,7.6,-0.4,-0.4,-5.0

41	COc1cc(NC(=O)C2=C(C)NC(=O)NC2c2cccc([N+](=O)[O-])c2)c(OC)cc1Cl (centres undefined)
42	OC(CNC1CCCCC1)CN1CCN(CC(O)CNC2CCCCC2)CC1 (centres undefined)
43	Cc1nnc(SCC(=O)Nc2ccc(Cl)cn2)s1
44	CCN(c1ccc(C(O)(C(=O)OC)C(F)(F)F)cc1)S(=O)(=O)c1cccc([N+](=O)[O-])c1 (centres undefined)
45	CCOCCc1nnc(NC(=O)C2c3ccccc3Oc3ccccc32)s1
46	O=C1N=C(N2CCOCC2)S/C1=C1\C(=O)N(Cc2ccc(Cl)cc2)c2ccccc21
47	CCOc1ccccc1NC(=S)Nc1ccccc1I
48	CCS(=O)(=O)NCCNc1ccc([N+](=O)[O-])cc1Cl
screen / no.,41,42,43,44,45,46,47,48
motility,3.1%,-4.5%,-2.3%,6.5%,-12.1%,-4.6%,-6.0%,9.7%
motility viability,-0.7,-4.8,-0.6,-0.7,3.3,-7.1,-3.5,-2.6

49	c1ccc2c3c(c(CN4CCCC4)cc2c1)COC3
50	O=C(Nc1ccc([N+](=O)[O-])c(NC(=O)c2cccnc2)c1)c1cccnc1
51	CCOC(=O)CNC(=O)CSc1nnc(-c2cccs2)n1C
52	c1ccc(-c2cc(-c3nc(-c4ccncc4)no3)c3ccccc3n2)cc1
53	N#Cc1c(NC(=O)c2cnn3c(C(F)(F)F)cc(-c4ccco4)nc23)sc2c1CCCC2
54	CCc1cc2c(=O)c(Oc3ccccc3F)c(C)oc2cc1OC
55	CCOC(=O)c1ccc2[nH]c(C)c(C/C=C(/C)Cl)c(=O)c2c1
56	N#C/C(=C/c1c(F)cccc1Cl)C(N)=S
screen / no.,49,50,51,52,53,54,55,56
motility,12.0%,-4.0%,-6.4%,-22.5%,2.5%,13.3%,3.5%,-9.6%
motility viability,-5.8,-1.4,-0.3,-6.9,-2.4,-4.4,26.4,-7.1

57	CC(C)c1c(O)nc(SCC(=O)NCc2ccco2)n(-c2ccccc2)c1=O
58	COc1ccc(C(=O)NNS(=O)(=O)N(C)C)cc1OC
59	O=C(NCc1ccccn1)C1CCC(Cn2c(=S)[nH]c3ccccc3c2=O)CC1 (centres undefined)
60	O=c1c2ccccc2nc(-c2ccccc2Br)n1-c1cccc2ccccc12
61	NC(=O)c1ccc(NC(=O)Nc2cc(Cl)ccc2Cl)cc1
62	O=C(OCc1ccc(Br)cc1)c1ccccc1S(=O)(=O)c1ccc([N+](=O)[O-])cc1
63	O=C(CC(NCc1ccccn1)C(=O)O)Nc1ccc(Cl)cc1 (centres undefined)
64	COc1ccc(Br)cc1Cc1nc(C)cc(-n2cc(F)c(=O)[nH]c2=O)n1
screen / no.,57,58,59,60,61,62,63,64
motility,1.0%,5.9%,-15.4%,4.5%,-19.2%,9.0%,4.2%,5.8%
motility viability,3.0,-2.8,5.8,1.5,-9.7,-5.3,-9.2,-0.7

65	CCCCN(CCCC)c1ncnc2nc[nH]c12
66	CSCCC(NC(=O)/C(=C\c1cccc(Br)c1)NC(=O)c1ccco1)C(=O)O (centres undefined)
67	O=C(NCCC1=CCCCC1)c1cccc(C(=O)NCCC2=CCCCC2)n1
68	Cc1cc(C)c2c(-c3ccccc3)[nH]nc2n1
69	Cc1csc(NC(=O)CSc2nnc(-c3ccc(Cl)cc3)n2N)n1
70	Cc1ccc(NC(=O)C2CC3CCC2C3)c(Br)c1 (centres undefined)
71	COc1ccc(-n2c(C)cc(C)c(C(C)=O)c2=O)cc1
72	C=C(C)c1cccc(C(C)(C)NC(=O)N2CCCC(C(N)=O)C2)c1 (centres undefined)
screen / no.,65,66,67,68,69,70,71,72
motility,3.8%,8.6%,-10.6%,-1.0%,-1.5%,-13.6%,-1.0%,-10.2%
motility viability,-0.1,-1.6,-3.9,-2.3,-2.3,-9.0,-4.0,-3.8

73	COC(=O)Nc1ccc(-c2ccc(NC(=O)OC)c(C)c2)cc1C
74	COc1ccc(CNC(=O)c2cc(SC)ccc2Cl)cc1OC
75	CCOC(=O)c1ccc(Oc2cc(C)nc(SC)n2)cc1
76	COc1ccc(Br)cc1CSCCC#N
77	CC(C)(C)c1ccc(NC(=O)Nc2ccccc2[N+](=O)[O-])cc1
78	Cc1ccc(Nc2nc(N)nc(CSc3nccn3C)n2)c(C)c1
79	CSc1ccc(S(=O)(=O)NCCSC2CCCCC2)cc1
80	O=C(Nc1nccs1)c1cccc2c1-c1ccccc1C2=O
screen / no.,73,74,75,76,77,78,79,80
motility,-19.0%,-11.6%,11.4%,3.8%,20.1%,5.1%,16.3%,-17.5%
motility viability,-10.7,-3.6,4.2,-1.6,21.2,1.9,2.0,-7.3

81	COc1ccc(CN2CCN(C(=O)c3ccc(F)cc3)CC2)cc1Br
82	O=C(O)CC(NC(=O)c1ccccc1NC(=O)c1ccccc1)C(=O)O (centres undefined)
83	O=C(Nc1ccccc1C(=O)NCc1ccco1)c1ccccc1I
84	Cc1ccc(C(C)C)c(OCCSc2nc(N)cc(N)n2)c1
85	Cc1ccc(CNC(=S)NCCCn2nccc2C)cc1
86	S=C(Nc1ccc2c(c1)OCCO2)Nc1ccc(Br)cc1Cl
87	O=C(CSc1ccc(Cl)cc1)N1CCN(Cc2ccccc2)CC1
88	O=C1c2ccc(-c3nc4ccc(Br)cc4c(=O)o3)cc2C(=O)N1Cc1cccnc1
screen / no.,81,82,83,84,85,86,87,88
motility,-5.0%,3.0%,4.5%,57.4%,6.0%,5.4%,31.0%,4.0%
motility viability,-4.6,1.0,-0.6,19.9,-4.8,-11.4,4.4,-5.4

89	COc1ccc(I)cc1S(=O)(=O)NCCN1CCOCC1
90	CC(=O)Oc1ccc(C(=O)NCc2ccc(F)cc2)cc1
91	Cc1c(C)n(C(=O)CN2CCN(c3ccccn3)CC2)c2ccccc12
92	Cc1cc(C)nc(/N=C(\NC(=O)C(F)(F)F)Nc2ccccc2)n1
93	COc1ccc(-c2csc(N3CCN(Cc4ccc5c(c4)OCO5)CC3)n2)cc1
94	CCc1[nH]nc2c1C1(CN3CCC1CC3)C(C#N)=C(N)O2 (centres undefined)
95	CCn1cc(C(=O)O)c(=O)c2cnc(N3CCN(C(=S)Nc4sc5c(c4C(=O)OC)CCCCCC5)CC3)nc21
96	Cc1c(NC(=S)Nc2ccc(S(=O)(=O)Nc3nccs3)cc2)c(=O)n(-c2ccccc2)n1C
screen / no.,89,90,91,92,93,94,95,96
motility,15.0%,17.0%,10.8%,6.7%,-20.2%,-3.1%,-8.6%,0.2%
motility viability,25.0,1.8,-0.6,1.6,-6.6,-0.3,0.4,-2.7

97	CCCc1cc(C(=O)O)c2ccccc2n1
98	CCCSc1nnc(C(C)C)n1N
99	O=C(NC(=S)Nc1ccc(I)cn1)c1ccc(-c2cccc(Cl)c2)o1
100	COc1ccc(C2SCC(=O)Nc3c2c(C)nn3C2CCOC(C)(C)C2)cc1OC (centres undefined)
101	C=CCNC(=S)N1CCNC(=O)C1CC(=O)Nc1cc(Cl)ccc1OC (centres undefined)
102	CC(=O)Oc1cccc(C(=O)Nc2ccncc2)c1
103	CC(=O)C1=C(O)C(=O)N(c2nc3ccccc3s2)C1c1ccc(O)cc1 (centres undefined)
104	O=C(NCc1ccccn1)c1ccccc1C(=O)c1ccccc1
105	Cc1cc(C)c(S(=O)(=O)Nc2ccc(N3CCOCC3)cc2)c(C)c1
106	O=C(Nc1ccc(F)cc1F)c1ccc([N+](=O)[O-])cc1Cl
screen / no.,97,98,99,100,101,102,103,104,105,106
motility,4.2%,-24.3%,10.4%,-5.0%,-5.0%,0.0%,5.3%,17.5%,3.1%,2.9%
motility viability,-5.0,-4.8,-1.1,1.1,0.4,2.4,1.9,2.3,-5.2,3.1

Down the list, from the results shown:
motility viability, nos. 49 to 60, in order: -5.8, -1.4, -0.3, -6.9, -2.4, -4.4, 26.4, -7.1, 3.0, -2.8, 5.8, 1.5

Pulled one by one from the entries so far, 5 records:
104	O=C(NCc1ccccn1)c1ccccc1C(=O)c1ccccc1
103	CC(=O)C1=C(O)C(=O)N(c2nc3ccccc3s2)C1c1ccc(O)cc1 (centres undefined)
99	O=C(NC(=S)Nc1ccc(I)cn1)c1ccc(-c2cccc(Cl)c2)o1
98	CCCSc1nnc(C(C)C)n1N
101	C=CCNC(=S)N1CCNC(=O)C1CC(=O)Nc1cc(Cl)ccc1OC (centres undefined)
screen / no.,104,103,99,98,101
motility,17.5%,5.3%,10.4%,-24.3%,-5.0%
motility viability,2.3,1.9,-1.1,-4.8,0.4
